MgrA-DNA mod: S. aureus MgrA-DNA binding modulation; inhibition, %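 (about 10 µg/mL by stock and volumes)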; fluorescence polarization; hit rate 0.13% among 84,000;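 active = above 50% in either of two replicates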;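 also: 0% = protein plus DNA without compound and 100% = DNA alone without protein; higher means less MgrA bound to DNA so lower polarization; one replicate is shown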
S aureus helic: blocks Staphylococcus aureus DNA helicase; hit rate 0.05% among 120,000; purified S. aureus helicase, fluorescence unwinding assay; about half of the hits fall short of the stated cut; inhibition, %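 (tested at about 80 µM)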;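 active = both duplicates at 50% or more, or one of them with a favoured structure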;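 also: 0% = mean of negative control wells and 100% = mean of positive control wells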
* hit, by the source's call; x = no result given; & = joins results of further samples.

Results follow in this order: MgrA-DNA mod | S aureus helic
O=C(CCc1ccccc1)NCc1ccccc1
  x | 8
NS(=O)(=O)c1ccc(CNC(=O)COc2ccc(Cl)cc2)cc1
  -2.0 | 11
COc1ccc(O)c(C(=O)OC(C(=O)N(C)C)c2ccccc2)c1 (stereo not drawn)
  x | 3
O=C1C2C3C=CC(C3)C2C(=O)N1c1ccc2c(c1)OCO2 (stereo not drawn)
  -2.0 | 3
O=C(Cc1ccccc1)NCc1ccc2[nH]c3c(c2c1)CCCC3
  x | 7
Clc1ccc(OCc2cn3ccccc3n2)c2ncccc12
  0.3 | 19
CCOC(=O)CSC1=C(C#N)C(c2cccc(Cl)c2)CC(=O)N1 (stereo not drawn)
  0.9 | -18
O=C(c1ccccc1)N1CCOc2ccccc21
  x | -9
CC(=O)Nc1cccc(OCc2cc(=O)n3nc(CC(C)C)sc3n2)c1
  x | 20
CCNc1nc(NC(C)C)nc(Oc2ccc(/C=N/O)cc2)n1
  2.8 | 19
O=C1c2ccccc2C(=O)N1/N=C/c1cn(-c2ccccc2)nc1-c1cccs1
  x | -10
CCOC(=O)C1=C(C)Nc2ccccc2N=C1N
  x | 8
CN(C)S(=O)(=O)c1ccc(/C(O)=C2\C(=O)C(=O)N(Cc3cccnc3)C2c2cccnc2)cc1 (stereo not drawn)
  1.4 | -18
CC(C)(C)CC(C)(C)N=C1NS(=O)(=O)c2ccccc21
  0.4 | 9
CC(C)n1c(=S)[nH]c2ccccc2c1=O
  2.8 | 7

Further structures follow:
Results follow in this order: MgrA-DNA mod | S aureus helic
COC(=O)c1c(C)oc2ccc(NS(=O)(=O)c3ccc(OC)cc3)cc12
  x | 9
O=C(O)CNc1nc(C(F)(F)F)nc2c1cnn2Cc1ccccc1
  x | -3
CCOC(=O)c1oc2ccccc2c1CSc1ccccn1
  x | 12
Cc1coc(=O)n1-c1ccc(Cl)cc1Cl
  -2.3 | x
CN(C)CCOC(c1ccccc1)c1ccccc1 (tested in a mixture with another compound)
  4.5&0.9 | x
Cc1ccc(S(=O)(=O)Cc2c(Cl)cccc2Cl)cc1
  -1.7 | x
O=c1[nH]c(-c2cccs2)nc2ccccc12
  -2.3&-0.9 | x
O=[N+]([O-])/C=C/c1ccsc1
  0.6 | x
Cn1c(SCC(=O)NC(C)(C)C)nc2cccnc21
  0.4 | 8
CC1CCc2nc3ccccc3c(C(=O)O)c2C1 (stereo not drawn)
  x | 14
CC1CCCCC1NC(=O)Cn1cc2c(n1)CCCCC2 (stereo not drawn)
  x | 0
Cc1ccc2c(CC(=O)NCCc3ccc(S(N)(=O)=O)cc3)coc2c1
  x | 0
CCOc1ccc(CNC(=O)C2CCCN(S(=O)(=O)N3CCOCC3)C2)cc1 (stereo not drawn)
  x | -17
Cc1cc(C)cc(OCC(O)CNC(C)(C)C)c1 (stereo not drawn)
  2.4 | 17
O=C(CN1CCCC1)N/N=C/c1ccc(-c2cccc(Cl)c2Cl)o1
  -15 | 4

Further compounds:
Results follow in this order: MgrA-DNA mod | S aureus helic
Cc1cc(C(=O)COC(=O)/C=C/c2ccc3c(c2)OCO3)c(C)n1C1CC1
  x | 7
O=C(Nc1nccs1)C12CC3CC(C1)CC(C(=O)Nc1nccs1)(C3)C2
  1.6 | 12
CCN(CC)S(=O)(=O)c1cccc(-c2nnc(C(=O)c3ccc(C(F)(F)F)cc3)o2)c1
  x | 12
CCOC(=O)c1c(C)oc2c1c(C(c1cccnc1)N1CCOCC1)c(O)c1ccccc12 (stereo not drawn)
  x | -11
C=CCn1cc(/C=C(/C#N)C(=O)OCC)c2ccccc21
  0.1 | 12
CSc1nnc(CCCc2nnc(SC)o2)o1
  -0.2 | x
O=C(O)Cn1ccc(C(F)(F)F)n1
  x | -1
CC(C)NS(=O)(=O)c1ccc(OCC(=O)O)c(Cl)c1
  -6.3 | 4
O=C(c1ccccc1)c1cccc(NC(=O)c2c(F)cccc2Cl)c1
  0.8 | x
O=C(Nc1ccccc1)N1CCn2c(nc3ccccc32)C1
  -1.1 | 9
NCCCn1c2c(c3ccccc31)CCCC2
  -1.2 | 0
Nc1nc(-c2ccc3c(c2)OCCO3)cs1
  1.3 | -1&-8
CCOC(=O)c1cccc(NC2c3ncccc3C(=O)N2c2ccc(C)cc2)c1 (stereo not drawn)
  x | 9
S=C1NCN(Cc2cccs2)CN1
  0.0 | x
Clc1ccc(OCCSc2ncnc3ccccc23)cc1
  -0.4 | -2

More structures.
Results follow in this order: MgrA-DNA mod | S aureus helic
N#Cc1cc(C#N)c(SCC(=O)NC2CCCCC2)nc1N
  -1.0 | -6
COc1ccc2nc(NC(=O)c3cccnc3)sc2c1
  x | 10
COCC(C)NC(=O)c1cc2cc(OC)ccc2[nH]1 (stereo not drawn)
  -1.5 | x
Cc1cc(C)c(NC(N)=S)c(C)c1
  -3.5 | x
CCOC(=O)c1sc(SCc2ccccc2)c2c1CC(C)(C)CC2=O
  1.8 | x
COc1ccc(-c2noc(CNC(=O)C3CCCCC3)n2)cc1
  x | 20
O=C(COC(=O)c1cc2cc(Br)cc(Br)c2oc1=O)c1cccs1
  x | -16
COCCOC(=O)C1=C(C)N(Cc2ccccc2)C(=O)NC1c1ccc(OCc2ccccc2)cc1 (stereo not drawn)
  1.1 | x
CCn1c(SCC(=O)C23CC4CC(CC(C4)C2)C3)nnc1-c1ccco1
  x | -6
C=C1SC(Nc2cc(Cl)c(Cl)cc2Cl)=NC1(C)C
  3.0 | x
c1ccc(N=P(N2CCOCC2)(N2CCOCC2)N2CCOCC2)cc1
  x | -12
CCNc1nc(-c2ccccc2)no1
  x | 8
CCCCN1C(=O)/C(=C\C(=O)NC(N)=O)c2ccccc21
  x | -9
COC(=O)CSCc1n[nH]c(=O)c2ccccc12
  -0.3 | x
Cc1c(N=C2c3ccccc3-c3ccccc32)c(=O)n(-c2ccccc2)n1C
  -3.3 | 12

One compound at a time (already shown). Order of values: MgrA-DNA mod	S aureus helic
Entry for COCC(C)NC(=O)c1cc2cc(OC)ccc2[nH]1 (stereo not drawn) → -1.5	x
Entry for CCOC(=O)c1sc(SCc2ccccc2)c2c1CC(C)(C)CC2=O → 1.8	x
Entry for COCCOC(=O)C1=C(C)N(Cc2ccccc2)C(=O)NC1c1ccc(OCc2ccccc2)cc1 (stereo not drawn) → 1.1	x
Entry for Cc1c(N=C2c3ccccc3-c3ccccc32)c(=O)n(-c2ccccc2)n1C → -3.3	12

The list goes on:
Results follow in this order: MgrA-DNA mod | S aureus helic
CC(=O)Nc1ccc(C(=O)c2ccccc2)cc1
  2.0 | -6
NC(=O)c1ccc2c(c1)C1C3CCC(C3)C1C(c1ccccc1)N2 (stereo not drawn)
  x | -9
Cc1ccc(OC(=O)c2sc3nc(C(F)(F)F)nn3c2C)cc1
  2.2 | x
CCN1CCN(C(=O)c2ccc(NC(C)=O)cc2)CC1
  -2.4 | 3
O=C(Nc1ccccc1C(=O)Nc1ccc(Cl)cc1)c1ccccc1
  0.1 | x
CC1(C)Cc2ccccc2-c2nnc(SCC(N)=O)n21
  -0.5 | -4
CC(=O)Nc1n[nH]c(-c2ccc(C)cc2)n1
  1.1 | 8
CC(=O)NNc1nc(Cl)nc(N(C)C)n1
  -1.0 | 1
C=CCn1c(-c2ccc(N)cc2)nc2ccccc21
  x | 8
CCc1cc(=O)oc2cc(O)ccc12
  -1.2 | -4
O=C(O)c1ccccc1C(=O)OCc1ccc(F)cc1F
  -1.1 | 5
Cc1cc(C(F)(F)F)c2c(=O)n3[nH]c(C)cc3nc2n1
  x | 1
O=C(NCC1CCCO1)c1cccc(C(=O)NCC2CCCO2)c1 (stereo not drawn)
  1.4 | 4
O=C(O)c1ccccc1C(=O)c1ccc2c(c1)CCC2
  -2.1 | x
Cc1cc(=O)oc2cc(OCC(=O)N3CCCC3C(=O)O)ccc12 (stereo not drawn)
  x | 3

Continuation.
Results follow in this order: MgrA-DNA mod | S aureus helic
CC(Sc1nncn1C)C(=O)N(C)c1ccccc1 (stereo not drawn)
  x | -7
CNC(=O)COc1ccccc1C(=O)Nc1ccccc1
  x | 9
CN(C)CCNc1cn[nH]c(=O)c1Cl
  -1.6 | 4
CCCN1CSC(=S)N(CCC)C1
  x | 1
CCc1n[nH]c(=S)n1/N=C1\C(=O)N(C)c2ccccc21
  x | 7
COc1ccc(C(=O)c2c(/C=C/N(C)C)oc3ccc(OC)cc23)cc1
  1.4 | x
Cc1n[nH]c(C)c1C(C)C(=O)Nc1ccc(CN2CCOCC2)cc1 (stereo not drawn)
  x | 4
CCN1CN=C(SCc2ccc(Cl)cc2)NC1
  0.0 | x
COc1ccc(OC)c2sc(NC(=O)/C=C/c3cccs3)nc12
  x | -7
COC(=O)c1cccc2c(Br)ccc(C(=O)OC)c12
  x | -15
Cc1ccc(C(=O)Oc2c(C)cc(-c3nn(C)c(=O)c4ccccc34)cc2C)cc1
  0.1 | x
O=c1n(CCCN2CCN(c3cccc(Cl)c3)CC2)nc2ccccn12
  -1.3&-0.5 | x
CCCCc1c(C)nc(N)[nH]c1=O
  3.6 | x
Cc1cccn2c(=O)c3cc(C(=O)NCC4CCCO4)c(=N)n(C4CCCCC4)c3nc12 (stereo not drawn)
  1.3 | 21
CN(C)c1ccc(NC(=O)/C=C/c2ccccc2)cc1
  0.6 | x

Remaining list, next part
Results follow in this order: MgrA-DNA mod | S aureus helic
COc1cccc(NC(=O)c2cn(C3CCCC3)c(=O)c3c2c2ccccc2n3C)c1
  0.2 | 9
CCOC(=O)c1cc(C(=O)OCC)c(C(F)(F)F)nc1/C=C/N(C)C
  -1.9 | x
COC(=O)c1cccc(NC(C)=O)c1
  0.8 | x
CCOC(=O)c1cnn2c(C)cc(-c3ccc(F)cc3)nc12
  x | 38
CCN1C(=O)C(=Cc2cccn2-c2ccc(N(C)C)cc2)C(=O)N(CC)C1=S
  8.6 | 10
COc1ccc(NS(=O)(=O)c2coc(C(N)=O)c2)cc1
  x | -52
COc1ccc(-n2c(O)c(/C=N/N(C)C)c3ccccc3c2=O)cc1
  -1.0 | 16
CCN(CC)CCNc1c2c(nc3cc(-c4ccc(OC)c(OC)c4)nn13)CCC2
  -0.7 | 23
C=C(C)CN1N=C(C(C)(C)C)CC1=O
  3.6 | 7
Cc1ccc2sc(-c3ccc(N4C(=O)C5CC=CCC5C4=O)cc3)nc2c1 (stereo not drawn)
  1.4 | 0
CC1=C(C(=O)OCCOc2ccccc2)C(c2ccc(Cl)c(Cl)c2)NC(=O)N1C (stereo not drawn)
  0.0 | x
CCOC(=O)c1ccc(N2C(=O)CC(SCC(=O)Nc3ccc(F)cc3)C2=O)cc1 (stereo not drawn)
  4.5 | x
O=C(NCCc1nnc2ccc(SCC(=O)N3CCCC3)nn12)c1ccccc1
  x | 9
O=C1CCCc2ccccc2N1
  x | 27
Cc1ccc(C)n1-c1ccc(/C=C(/C#N)S(=O)(=O)C(C)(C)C)cc1
  -0.2 | x

In the list so far, 5 have a tert-butyl group.
Results follow in this order: MgrA-DNA mod | S aureus helic
CC(C)(C)CC(C)(C)N=C1NS(=O)(=O)c2ccccc21
  0.4 | 9
Cn1c(SCC(=O)NC(C)(C)C)nc2cccnc21
  0.4 | 8
Cc1cc(C)cc(OCC(O)CNC(C)(C)C)c1 (stereo not drawn)
  2.4 | 17
C=C(C)CN1N=C(C(C)(C)C)CC1=O
  3.6 | 7
Cc1ccc(C)n1-c1ccc(/C=C(/C#N)S(=O)(=O)C(C)(C)C)cc1
  -0.2 | x

Next compounds:
Results follow in this order: MgrA-DNA mod | S aureus helic
CCCC1(C(=O)OC)NC(c2ccc(OC)c(OC)c2)C2C(=O)N(c3ccc4c(c3)OCO4)C(=O)C21 (stereo not drawn)
  -1.7 | 9
Cc1cc(SCC#N)c(Cl)cc1Cl
  0.6 | x
CCNC(CC(=O)Nc1ccc(O)cc1)C(=O)O (stereo not drawn)
  x | 3
O=C(OCCN1CCCCC1)c1ccc(F)cc1
  x | -14
COc1ccc(C)cc1NC(=O)C(Sc1nnc(C2CC2)n1C)c1ccccc1 (stereo not drawn)
  x | 16
Cc1cc2c3c([nH]c2cc1S(=O)(=O)NC1CC1)CCCC3=O
  x | 21
Cc1ccc(S(=O)(=O)c2no[n+]([O-])c2S(=O)(=O)c2ccc(C)cc2)cc1
  5.2 | 6
Cc1cccc2nc(CSc3nnc4ccccn34)cn12
  -2.2 | 5
CNC(=O)n1cc(-c2ccccc2)c(C)n1
  0.0 | x
COc1ccc(CCNC(=O)c2ccc3c(=O)n(CCc4ccccc4)c(=O)[nH]c3c2)cc1OC
  x | 10
Cc1cc(C(=O)CSc2nnc(Cc3ccccc3)o2)c(C)n1CCc1ccccc1
  x | -4
C/C(=N\NC(=O)CN1C(=O)COc2ccccc21)c1cc2cc(Cl)ccc2o1
  x | -3
COC(=O)c1ccc(C(Nc2ccccn2)c2ccc3ccc(C)nc3c2O)cc1 (stereo not drawn)
  x | 4
O=c1c(Cc2ccccc2)c(O)nc2ccccn12
  x | -32
O=C(Cn1nnc(-c2ccccc2)n1)OC1CCOC1=O (stereo not drawn)
  x | -11

3 of the compounds above, with the structure last:
MgrA-DNA mod	S aureus helic	Compound
-1.7	9	CCCC1(C(=O)OC)NC(c2ccc(OC)c(OC)c2)C2C(=O)N(c3ccc4c(c3)OCO4)C(=O)C21 (stereo not drawn)
0.6	x	Cc1cc(SCC#N)c(Cl)cc1Cl
x	3	CCNC(CC(=O)Nc1ccc(O)cc1)C(=O)O (stereo not drawn)

(continued)
Results follow in this order: MgrA-DNA mod | S aureus helic
O=S(=O)(Nc1cccc(-c2nnc3n2CCCCC3)c1)c1ccc2c(c1)OCCCO2
  x | 29
CN(C)c1ccc(CNC(=O)CC2(CC3=NS(=O)(=O)c4ccccc4N3)CCCC2)cc1
  x | -4
CC1=CS(=O)(=O)c2ccc(Cl)cc21
  1.6 | x
Cc1ccc(OS(=O)(=O)c2cc(C)c(Cl)cc2C)c(Br)c1
  1.5 | x

Assay outcomes: PubChem, ICCB-Longwood Screening Facility, Harvard Medical School

A portion of the library; count on the stated rates, not on these rows.
